NPYLR7 agonist = agonists of mosquito NPYLR7 receptor, primary screen, cell-based, Aedes aegypti, calcium fluorescence, mosquito biting behavior. Aedes aegypti neuropeptide Y-like receptor 7 (NPYLR7). activation, % at 10 µM. 270,000 tested, 0.15% active. HEK293T NPYLR7/Galpha15, GCaMP6s calcium fluorescence. AID 1259423, 2018; in the data active = activation above about 40%;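 also: 0% = vehicle and 100% = reference agonist at the receptor; some compounds past the cut are filed as inactive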
NPYLR7 agonist max-min = second read-out of NPYLR7 agonist, no call of its own (marks repeat the call); activation, %; measured here: Max-Min RFU normalised activation; some inactives read as strong as hits;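 span of the calcium signal over five minutes; 0% = vehicle and 100% = native peptide agonist; compound fluorescence can raise it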
Starred values were filed as active, the others as inactive; & = joins results of further samples. The list is partial; the hit share may differ from the screen's.

Values run as follows: NPYLR7 agonist | NPYLR7 agonist max-min
Cc1cc(C=O)cc2c1OC1(C=C2)Oc2ccccc2C(=O)N1C (configuration not stated)
    6 | 1
CCCn1cc(CN(C)CC2CCCN(CCc3ccccc3C)C2)c(C)n1 (configuration not stated)
    14 | 4
O=C(CC1=NCCCN1)c1ccccc1
    7 | 10
CN1CCN(c2ncccc2CNC(=O)CCCn2cnnn2)CC1
    1 | -1
C=C(C)Cn1c(=O)c2c(nc3n2CCN3c2ccc(C)cc2C)n(C)c1=O
    -4 | -3
CN1C[C@@H]2CC[C@H](CC1=O)N2C(=O)CNC(=O)c1ccccc1
    6 | 1
Cc1ccccc1C(=O)N(CCCN(C)C)c1nc2c(F)cccc2s1
    3 | 2
CC1CCCN(S(=O)(=O)c2ccc3c(c2)nc(SCc2ccccc2Br)n3C2CCCC2)C1 (configuration not stated)
    9 | 1
Cc1ccc(C)c(CN(CCN2CCOCC2)CC(=O)N(CCc2ccccc2)Cc2ccc(C)o2)c1
    8 | 17
Cc1ccc(C2CC2C(=O)N2CCN(c3ncc(C)s3)CC2)s1 (configuration not stated)
    -6 | -6
COc1ccc(N2CC(NC(=O)NCCCN3CCCCC3)CC2=O)cc1OC (configuration not stated)
    -3 | 2
CC(=O)N[C@@H]1C[C@H](Cc2ccccc2)O[C@H](c2nc[nH]c2C)C1
    3 | -4
Cc1ccccc1N1CCN(C2CCCN(C(=O)c3ccc([N+](=O)[O-])cc3)C2)CC1 (configuration not stated)
    -3 | -3
COCCNS(=O)(=O)c1cccc(C(=O)N2CC(C)CC2C)c1 (configuration not stated)
    0 | -1
CC1CN(Cc2csc(NC(=O)c3ccccc3F)n2)CC(C)O1 (configuration not stated)
    1 | 0
Cc1cc(C)c(C)c(S(=O)(=O)N(CC(=O)NC2CC2)Cc2ccccc2)c1C
    6 | 2
O=C(O)CCn1c(/C=C/c2ccsc2)nc2ccccc2c1=O
    -3 | -2
O=S(=O)(NC(=S)NC1CCCCC1)c1cccs1
    -3 | -4
Cc1ccccc1C(=O)N1C(C(=O)NCc2cccnc2)COC12CCN(C(=O)CC(C)(C)C)CC2 (configuration not stated)
    -1 | 12
CCCOc1ccc(-n2nnc(C(=O)N3CCOCC3)c2C)cc1
    1 | 2
Cc1cc(C)cc(NC(=O)c2c(-c3ccccc3Cl)noc2C)c1
    -1 | -7
O=C1NCCN1C1CCCN(S(=O)(=O)c2cc(C(F)(F)F)cc(C(F)(F)F)c2)C1 (configuration not stated)
    4 | 1
C[n+]1ccccc1N1CCN(C(c2ccccc2)c2ccccc2)CC1
    8 | 8
Cn1cc(NC(=O)c2cccc(CN3CCN(CC4CCCO4)CC3)c2)cn1 (configuration not stated)
    8 | 5
COCCn1c(C)cc(O)c(C(c2ccc(OC)cc2OC)N2CCCCC2)c1=O (configuration not stated)
    10 | 4
COc1cccc(CNC(=O)CC2C(=O)NCCN2CCc2ccccc2)c1OC (configuration not stated)
    3 | 1
C=CCSCC1Nc2cc(Cl)c(S(N)(=O)=O)cc2S(=O)(=O)N1 (configuration not stated)
    -1&-5 | -12&-6
Cc1ccc(-n2cc(CNC(C)c3cnn(-c4ccccc4)c3C)cn2)cc1 (configuration not stated)
    19 | 10
CCc1ccc(CN2CCC(CNC(=O)c3ccc[nH]c3=O)C2)nc1 (configuration not stated)
    5 | 4
Cc1ccn(C(=O)CN2C(=O)C3CC=CCC3C2=O)c(=NC2CCCCC2)c1 (configuration not stated)
    1 | 9
CN(C)C(=O)c1c([N+](=O)[O-])cnn1C
    5 | 5
CCN(CC)c1ccc(CNn2nnnc2N)cc1
    -15 | -24
CN1CC(=O)N2C[C@H](NC(=O)c3coc4ccccc4c3=O)C[C@H]2C1=O
    -4 | -5
Cc1c(C(=O)NCc2ccc(Cl)c(Cl)c2)sc(=O)n1Cc1cccc(F)c1
    12 | 8
O=C(NC1CCCC1)C1CCC(=O)N1C1CCCCC1 (configuration not stated)
    13 | 11
CCCCN(CC(=O)N1c2ccccc2-n2cccc2C1c1cc(OC)ccc1OC)C(=O)c1cccc(C(F)(F)F)c1 (configuration not stated)
    18 | 28
Cc1ccccc1-c1nc2scc(CCNC(=O)C(C)(C)C)n2n1
    -4 | -6
COc1cc(C2c3[nH]c4ccccc4c3CCN2C(=O)Nc2ccc(Cl)c(C(F)(F)F)c2)ccc1Br (configuration not stated)
    -7 | -17
CCN(CC)c1ccc(CN(CC(C)C)C(=O)NC(C)(C)C)c(OS(C)(=O)=O)c1
    -1 | 2
Cc1cc(C)cc(NC(=O)c2nnn(CC(=O)Nc3c(C)cc(C)cc3C)c2N)c1
    -6 | -10
CC(NC(=O)c1ccc2oc(CCCc3ccccc3)nc2c1)c1nccs1 (configuration not stated)
    10 | -2
Cc1ccc(-n2ccnc(SCC(=O)Nc3ccc(C)cc3C)c2=O)cc1
    5 | 5
CN(C)CCNC(=O)CCC1CCN(C/C(Cl)=C/c2ccccc2)CC1
    0 | -1
CN(Cc1noc(-c2ccccc2)n1)C(=O)CCC(=O)NC1CCCC1
    5 | -5
CN(CCCNC1CCC2(CCNCC2)CC1)c1ccccc1
    7 | 3
COc1ccccc1N1CCn2c1nc1c2c(=O)n(CCN2CCOCC2)c(=O)n1C
    1 | 0
CCCNC(=O)c1cn(CCC)cc2c(=O)n(-c3ccccc3)nc1-2
    10 | 9
COc1ccc(Br)cc1S(=O)(=O)Nc1ccccc1C(F)(F)F
    5 | 12
CC(C)c1nc2cc(-c3ccc(S(C)(=O)=O)cc3)ccc2o1
    18 | 8
CCc1nc2c(OCc3ccc(F)c(F)c3)cccn2c1N(C)C(=O)C1CC1
    -22 | -10

(further entries)
Values run as follows: NPYLR7 agonist | NPYLR7 agonist max-min
Cc1ccc2nc(-c3sccc3C)c(Nc3c(C)cccc3C)n2c1
    11 | 10
COCCN(CC(=O)N(CCc1ccc(OC)c(OC)c1)Cc1sccc1C)S(=O)(=O)c1ccc(Cl)c([N+](=O)[O-])c1
    -9 | -2
COc1ccc(C2CCCN2C(=O)C=Cc2cc(OC)c(OC)c(OC)c2)cc1 (configuration not stated)
    -2 | -2
CCN(c1ccccc1)c1cc(=NC)n(C)c(C)n1
    3 | -5
CCCC(=O)N1CCC(c2nnc(-c3ccccc3OC)s2)CC1
    -11 | -12
C[C@@H]1CN(C2(C(=O)NCCN3CCNC3=O)Cc3ccccc3C2)C[C@H](C)O1
    19 | 7
O=C(O)Cc1cc(-c2ccc3c(c2)OCO3)on1
    -3 | -5
Cc1ccc(-n2nnnc2SCc2ccccn2)cc1C
    3 | 4
CN1CCC1(C)C(=O)Nc1ccccc1Oc1ccccc1 (configuration not stated)
    0 | -1
CCN(CC)c1ccc(C2C(C(=O)OCCOC)=C(C)NC3=C2C(=O)CCC3)cc1 (configuration not stated)
    -5 | -8

Reprinted from the entries so far for reference:
Values run as follows: NPYLR7 agonist | NPYLR7 agonist max-min
Cc1ccc2nc(-c3sccc3C)c(Nc3c(C)cccc3C)n2c1
    11 | 10
COCCN(CC(=O)N(CCc1ccc(OC)c(OC)c1)Cc1sccc1C)S(=O)(=O)c1ccc(Cl)c([N+](=O)[O-])c1
    -9 | -2
COc1ccc(C2CCCN2C(=O)C=Cc2cc(OC)c(OC)c(OC)c2)cc1 (configuration not stated)
    -2 | -2
CCN(c1ccccc1)c1cc(=NC)n(C)c(C)n1
    3 | -5
CCCC(=O)N1CCC(c2nnc(-c3ccccc3OC)s2)CC1
    -11 | -12
C[C@@H]1CN(C2(C(=O)NCCN3CCNC3=O)Cc3ccccc3C2)C[C@H](C)O1
    19 | 7
O=C(O)Cc1cc(-c2ccc3c(c2)OCO3)on1
    -3 | -5

Following part.
Values run as follows: NPYLR7 agonist | NPYLR7 agonist max-min
Cc1cc(C)cc(CSc2nnc(NC(=O)CCc3ccccc3)s2)c1
    -4 | 3
COc1ccc(Cl)cc1NC(=O)Cn1nc(C(F)(F)F)c(Br)c1C
    1 | -3
O=C(NC1CC(=O)N(Cc2ccccc2)C1)c1cc2n(n1)CCNC2 (configuration not stated)
    -1 | -3
CCNC(=O)N1CCCC(OCc2ccccc2F)C1 (configuration not stated)
    -3 | 1
Cc1noc(C)c1CCC(=O)NC(C)c1ccc2c(c1)NC(=O)CO2 (configuration not stated)
    -3 | -4
CCC(C)(C)NC(=O)c1ccc(NC(=O)NCc2cccn2C)cc1
    5 | 0
O=C(c1ncc[nH]1)N1CCOC(Cc2ccccc2)C1 (configuration not stated)
    2 | 6
COc1ccc(C2=Nc3ncnn3C(c3cc(OC)c(OC)c(OC)c3)C2)cc1 (configuration not stated)
    7 | 11
CC(=O)c1[nH]c(C)c(C(=O)N2CCC3(CCCN(Cc4ccc(F)c(F)c4)C3)C2)c1C (configuration not stated)
    17 | 10
Cc1ncc(CO)c(CN2CCCC(c3ccccc3)C2)c1O (configuration not stated)
    -2 | -3

Among those listed so far, two have a COOH group.
Values run as follows: NPYLR7 agonist | NPYLR7 agonist max-min
O=C(O)CCn1c(/C=C/c2ccsc2)nc2ccccc2c1=O
    -3 | -2
O=C(O)Cc1cc(-c2ccc3c(c2)OCO3)on1
    -3 | -5

More compounds follow.
Values run as follows: NPYLR7 agonist | NPYLR7 agonist max-min
CSc1nnc(CN2CCCC2CO)s1 (configuration not stated)
    -5 | -8
COCCCn1ccnc1-c1ccc(-n2ccnc2)cc1
    21 | 10
CC(NC(=O)C1CC(=O)N(C)c2ccccc21)c1ccc(F)c(F)c1 (configuration not stated)
    8 | 2
Cc1ccccc1OCc1ccc(-c2nc(C#N)c(N3CCCC3)o2)o1
    0 | 28
CN(CCCOc1ccccc1Cl)S(=O)(=O)NCc1ccccc1
    -3 | -2
Cc1cc(C)c(-c2csc(NC(=O)Cc3c(C)nn(C)c3C)n2)cc1C
    -4 | -4
CC(=O)c1ccc(C(=O)Nc2cccc3c2C(=O)c2ccccc2C3=O)cc1
    -3 | -8
O=C(CCn1cccn1)Nc1ccc(Br)cc1
    7 | 7
Cc1nn(-c2cccc(F)c2)c(N2CCN(C)CC2)c1CN(CCC(C)C)C(=O)Cc1cccs1
    -1 | 6
CCNc1cc(C)nc(N2CCN(C(=O)Cc3ccccc3)CC2)n1
    9 | 3
Cc1nc2sc(C)c(C)n2c(=O)c1NC(=O)c1ccccc1Cl
    -2 | -6
CCCCc1ccc(C(=O)Nc2c(-c3ccc(OC)cc3)nc3ccccn23)cc1
    -3 | 4
Cn1nnc2cc(C3CC(=O)Nc4cc5[nH]ncc5cc43)ccc21 (configuration not stated)
    -3 | -4
Cc1ccc(-n2ncc3c(=O)[nH]c(-n4nc(C)cc4NC(=O)COc4ccccc4F)nc32)cc1
    -3 | -6
Cc1ccc(NS(=O)(=O)c2cc(NC(=O)C3CC3C)ccc2C)c(C)c1 (configuration not stated)
    2 | 3
CCCC(NC(=O)C(C)S(=O)(=O)Cc1cc(C)ccc1C)c1ccccc1 (configuration not stated)
    -4 | -5
CN(NC(=O)c1ccc(CSc2ccc3ccccc3n2)cc1)c1ccccc1
    -20 | -27
COc1ccc(Cn2cnc3cnc(-c4cc(OC)c(OC)c(OC)c4)cc32)cc1OC
    9 | -2
CCC(C)N(Cc1ccncc1)C(=O)c1occc1C (configuration not stated)
    -1 | -5
CC1(C)Cc2cccc(OC3CCN(C(=O)Nc4cn[nH]c4)CC3)c2O1
    -4 | -7
CN(C)CCCOc1ccc(-c2nnc3ccc(C#Cc4ccc(C(=O)N(C)C)cc4)cn23)cc1
    16 | 14
Cc1cc(O)c2c(c1)C(=O)c1cc(O)cc(O)c1C2=O
    -6 | 0
Cc1sc(NC(=O)C2C3C=CC(C3)C2C(=O)O)nc1-c1ccccc1 (configuration not stated)
    3 | 4
CCOc1cc(Nc2ccc(NC(=O)C(CC)CC)cc2)nc(C)n1
    8 | -1
CCCn1c(N)c(-c2csc(Nc3ccc(F)c(Cl)c3)n2)c(=O)[nH]c1=O
    1 | 0
CCn1c(C2CCCN(Cc3cccc4nonc34)C2)n[nH]c1=O (configuration not stated)
    -1 | -1
CCOC(=O)C1CCCCN1S(=O)(=O)N1CCN(S(=O)(=O)C2CCS(=O)(=O)C2)CC1 (configuration not stated)
    0 | 27
CSc1ncccc1C(=O)N1CCC2(CC1)Nc1ccccc1C(=O)N2C1CCCC1
    -1 | 6
Cc1cc(C(=O)N2CCC(c3cc(Cc4ccccc4)[nH]n3)CC2)cc(=O)[nH]1
    1 | 3
O=C(Oc1ccccc1Br)c1cc2ccccc2o1
    3 | 2
COCCCNC(=O)c1nn(-c2ccc(C)c(Cl)c2)c(=O)n(Cc2ccc(F)cc2)c1=O
    0 | 6
CCOCc1cc(-c2nccn2-c2cccnc2)ccc1OC
    13 | 10
CC12CC(NC(=S)N1c1ccc(F)cc1)c1cc(F)ccc1O2 (configuration not stated)
    -4 | -7
OCC1(Cc2cccc(Cl)c2)CCCN(Cc2ccccn2)C1 (configuration not stated)
    1 | -2
Cn1ncc(Oc2ccc(F)cc2)c(Nc2ccc(C(=O)N3CCCCC3)cc2)c1=O
    6 | 14
Clc1cc(Cl)cc(Nc2ncnc3sccc23)c1
    11 | 7
O=C1CCCN1CC1CCN(C(=O)c2ccc(N3CCOCC3)nc2)CC1
    4 | 1
Cc1noc(C)c1CN(C)C(=O)Nc1cc(N2CCCC2=O)ccc1Cl
    1 | -2
CCOc1ccc(C2NC(=O)NC3=C2C(=O)N(CC(C)C)C3)cc1 (configuration not stated)
    13 | 6
C=CCN(CC(=O)N1CCc2sccc2C1c1ccc(Cl)cc1)C(=O)c1ccc(CCCC)cc1 (configuration not stated)
    -2 | 7
CCCN(CCC)S(=O)(=O)c1ccc(C(=O)NNc2nc(-c3ccccc3)c3cc(Br)ccc3n2)cc1
    -9 | -5
Cc1ccc(C(=O)OCC(O)Cn2ccc(NC(=O)c3ccccc3)nc2=O)cc1 (configuration not stated)
    -4 | -9
N#Cc1cccc(OCC(=O)NC2(C#N)CCCC2)c1
    -9 | -7
O=c1ccn(-c2nc(-c3ccccc3)sc2-c2ccccc2)c(=O)[nH]1
    11 | 6
CC(=O)Nc1cccc(-c2cnc(N3CCOCC3)nc2-c2ccc(C)cc2)c1
    10 | 31

Screens: PubChem, Fisher Drug Discovery Resource Center
